Assay outcomes: PubChem BioAssay, Southern Research Institute
Mtb growth – Confirmatory growth inhibition assay against Mycobacterium tuberculosis H37Rv, potency (AID 1949). one-dose inhibition, % at 10 µg/mL; IC50 in µg/mL for titrated hits. most inactive calls were filed without a number and no value below 0 was filed. 1.6% of 100,000 active;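 active means confirmed in a dose series; inconclusive means about 50% or more but not retested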;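 further: bacteria grown 7 days with compound before Alamar blue readout; 0% = untreated bacteria and 100% = reference antibiotic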
* hit, by the source's call. An excerpt; count on the stated rates, not on these rows.

What do the screens show for `C=CCn1c(CSCc2ccc(F)cc2)n[nH]c1=S`?
Mtb growth: inactive

Results for CCOC(=O)c1ccc(N2CCN(CCNC(=S)Nc3cccc(C)c3C)CC2)cc1 ?
Mtb growth: 27.6%

How did O=C(c1ccc(Cn2cc(Br)cn2)o1)n1cccn1 do in these assays?
Mtb growth: inactive

Results for CCOC(=O)c1sc(NCCNc2nc(C)c(C(=O)OCC)s2)nc1C ?
Mtb growth: inactive

How did COc1ccc(OC)c(NC(=S)NCCCO)c1 do in these assays?
Mtb growth: inactive

Results for Cc1ccc(-c2ccc(C=O)o2)cc1[N+](=O)[O-] ?
Mtb growth: 49.2%

Results for COc1ccc(Cl)cc1NC(=O)C1C2CC3OC(=O)C1C3C2 (stereo not given) ?
Mtb growth: inactive

What do the screens show for `O=C(NCCNC(=O)Nc1cccc(Cl)c1)Nc1cccc(Cl)c1`?
Mtb growth: inactive

How did CC(=O)c1cccc(NC(=O)COc2c(C)cc(C)cc2C)c1 do in these assays?
Mtb growth: inconclusive

What do the screens show for `O=C(Nc1ccc(N2CCCCCC2)cc1)c1ccccc1Cl`?
Mtb growth: 24.2%

What do the screens show for `COc1ccc(S(=O)(=O)N2CCc3ccccc3C2)cc1Cl`?
Mtb growth: inactive

Results for CCN(CC)S(=O)(=O)c1ccc2c3c(cccc13)C(=O)N2 ?
Mtb growth: 1.3%

Part of the list above in order of formula weight, largest number first.
What do the screens show for `COc1ccc(S(=O)(=O)N2CCc3ccccc3C2)cc1Cl`?
Mtb growth: inactive

How did CC(=O)c1cccc(NC(=O)COc2c(C)cc(C)cc2C)c1 do in these assays?
Mtb growth: inconclusive

What do the screens show for `C=CCn1c(CSCc2ccc(F)cc2)n[nH]c1=S`?
Mtb growth: inactive

Next section.
Results for FC(F)(F)c1cccc(N2CCN(C(=S)NCC3CCCO3)CC2)c1 (stereo not given) ?
Mtb growth: inactive

What do the screens show for `COCCNC(=O)c1c(C)c(-c2ccc(C)cc2)nc2ccccc12`?
Mtb growth: inactive

Results for O=C(N=Nc1c(O)[nH]c2ccc(Br)cc12)c1ccccc1O ?
Mtb growth: inconclusive

How did NC(=O)c1ccsc1NC(=O)c1ccc(Cl)cc1 do in these assays?
Mtb growth: inactive

How did COc1ccccc1CC(=O)O/N=C(\N)c1ccc([N+](=O)[O-])cc1 do in these assays?
Mtb growth: inactive

Results for Cc1ccccc1NC(=O)CC(NCCN(C)C)C(=O)O (stereo not given) ?
Mtb growth: inactive

Results for O=C(/C=C/c1cccc(Cl)c1Cl)Nc1ncc(Cc2ccccc2Cl)s1 ?
Mtb growth: inactive

Results for Cc1ccc(-n2nnnc2SCC(=O)Nc2ccc3c(c2)COC3=O)cc1C ?
Mtb growth: 0.7%

Results for CCc1ccccc1OCC(=O)Nc1ccc(S(=O)(=O)Nc2onc(C)c2C)cc1 ?
Mtb growth: inactive

Results for CCN1CCN(C(=S)Nc2ccc(F)cc2)CC1 ?
Mtb growth: inactive

How did COc1ccccc1OC(=O)C1CC(=O)N(c2ccc(Cl)cc2)C1 (stereo not given) do in these assays?
Mtb growth: inactive

What do the screens show for `CSc1ccccc1-n1nnnc1SCC(=O)Nc1cc(C)ccc1C`?
Mtb growth: inactive

How did Cc1oc2c(C)c(OC(=O)N3CCOCC3)ccc2c(=O)c1-c1nc2ccccc2s1 do in these assays?
Mtb growth: inactive

What do the screens show for `O=C(N/N=C/c1ccc(O)cc1O)c1cc(-c2ccccc2)n[nH]1`?
Mtb growth: inactive

How did O=C(CC(c1ccccc1)c1ccccc1)Nc1ccccc1-c1ccccc1 do in these assays?
Mtb growth: 4.7%

What do the screens show for `CCOc1cc(NC(=O)c2cccc(OC)c2)c(OCC)cc1NC(=O)c1ccccc1`?
Mtb growth: inactive

How did CCOC(=O)c1sc(NC(=O)CC23CC4CC(CC(C4)C2)C3)c(C#N)c1C do in these assays?
Mtb growth: 1.5%

What do the screens show for `O=C(CCCN1C(=O)c2ccccc2C1=O)Nc1cccnc1`?
Mtb growth: inactive

Results for Cc1ccccc1C(=O)Nc1nn[nH]n1 ?
Mtb growth: inactive

How did O=C(CSc1ncnc2sc3c(c12)CCC3)NCC1CCCO1 (stereo not given) do in these assays?
Mtb growth: inactive

How did Cc1ccc(CN(CC(=O)N2CCC(C(N)=O)CC2)S(=O)(=O)c2ccc(Br)cc2)cc1 do in these assays?
Mtb growth: inactive

Results for CCn1c(SCC(=O)Nc2cccc(SC)c2)nnc1-c1cccc(C)c1 ?
Mtb growth: inactive

How did CC1CCc2c(sc(NC(=O)c3cccs3)c2C#N)C1 (stereo not given) do in these assays?
Mtb growth: inactive

Results for CCOc1ccc(C(=O)N(CC)Cc2ccccc2)cc1 ?
Mtb growth: 0.2%

How did CCc1ccccc1N(CC(=O)Nc1ccccc1C(N)=O)S(=O)(=O)c1ccccc1 do in these assays?
Mtb growth: inactive

Results for CC1CCc2sc3ncnc(N4CCN(c5ccccn5)CC4)c3c2C1 (stereo not given) ?
Mtb growth: inconclusive

Results for CCOc1cc(C(=S)N2CCCCC2)ccc1OCC(=O)Nc1ccccc1CC ?
Mtb growth: inactive

Results for CCC(C)NC(=O)c1ccccc1SC (stereo not given) ?
Mtb growth: inactive

What do the screens show for `Cc1ccc(NC(=O)C2C3CC/C=C\CCC32)cc1` (stereo not given)?
Mtb growth: inactive

How did COc1cc(C(=O)Nc2ccc(C(=O)O)cc2)ccc1OC(C)=O do in these assays?
Mtb growth: inactive

What do the screens show for `Cc1ccc(S(=O)(=O)N2CCC(C(=O)N(Cc3ccccc3)Cc3ccccc3)CC2)cc1`?
Mtb growth: 3.3%

Results for COc1ccc(NC(=O)CCC(=O)c2ccc(-c3ccccc3)cc2)cc1 ?
Mtb growth: inactive

What do the screens show for `CCOC(=O)c1sc(NC(=O)CSc2ccccn2)c(C#N)c1C`?
Mtb growth: 6.4%

What do the screens show for `Nc1ccc(Oc2cccc3cccnc23)c(Cl)c1`?
Mtb growth: 6.2%

How did O=C(/C=C(\O)c1ccc([N+](=O)[O-])cc1)C(F)(F)F do in these assays?
Mtb growth: 3.4%

Results for COc1ccc(CCNC(=S)NNC(=O)C2c3ccccc3Oc3ccccc32)cc1OC ?
Mtb growth: inactive

What do the screens show for `CNC(=S)Nc1ccc(C(=O)O)cc1`?
Mtb growth: inactive

What do the screens show for `CCC(C)NS(=O)(=O)c1ccc(NC(=O)CSCc2ccccc2)cc1` (stereo not given)?
Mtb growth: inactive

Results for COc1ccc(NC(=O)CSc2nnc(NC(=O)c3ccccc3OC)s2)c([N+](=O)[O-])c1 ?
Mtb growth: inactive

Results for CC(C)(C)NC(=O)COc1ccc(CNc2ccc3[nH]c(=O)[nH]c3c2)cc1 ?
Mtb growth: 0.1%

What do the screens show for `Cc1ccc(-c2ccc(S(=O)(=O)NCc3ccccn3)cc2)cc1`?
Mtb growth: 3.1%

What do the screens show for `Cc1nc(N)sc1-c1csc(NCCc2ccccc2)n1`?
Mtb growth: 6.4%

What do the screens show for `COc1ccc(C(=O)N2CCC(C(=O)Nc3cccc(SC)c3)CC2)cc1`?
Mtb growth: inactive

What do the screens show for `Cc1nn(Cc2cccc(C(=O)Nc3ccc4oc(=O)cc(C(F)(F)F)c4c3)c2)c(C)c1Cl`?
Mtb growth: 7.2%

Results for Cc1cc(Br)ccc1OCC(N)=O ?
Mtb growth: inactive

How did O=C(c1ccccc1)c1ccc(OCCn2c3ccccc3c3ccccc32)cc1 do in these assays?
Mtb growth: 2.7%

Results for COc1ccc(-n2c(Cc3ccccc3)n[nH]c2=S)cc1 ?
Mtb growth: inactive

What do the screens show for `CCOC(=O)c1sc(NC(=O)CN2CCCC2)c(C(=O)OCC)c1C`?
Mtb growth: inactive

Structures shown so far with bromine (4):
How did O=C(c1ccc(Cn2cc(Br)cn2)o1)n1cccn1 do in these assays?
Mtb growth: inactive

Results for O=C(N=Nc1c(O)[nH]c2ccc(Br)cc12)c1ccccc1O ?
Mtb growth: inconclusive

How did Cc1ccc(CN(CC(=O)N2CCC(C(N)=O)CC2)S(=O)(=O)c2ccc(Br)cc2)cc1 do in these assays?
Mtb growth: inactive

Results for Cc1cc(Br)ccc1OCC(N)=O ?
Mtb growth: inactive

Next section:
Results for O=C(Nc1nccs1)c1ccc(-c2ccc([N+](=O)[O-])cc2)o1 ?
Mtb growth: inactive

How did O=C(COc1ccc(Cl)cc1)OCc1ccccc1 do in these assays?
Mtb growth: inactive

Results for COC(=O)c1ccc(Nc2nnc(-c3ccc(C)c(S(=O)(=O)NCCO)c3)c3ccccc23)cc1 ?
Mtb growth: 1.6%

Results for COc1ccccc1-c1nc(SCC(=O)Nc2ccc(C)c(C)c2)n[nH]1 ?
Mtb growth: 1.6%

How did CCCCC(=O)Nc1cccc(NC(=O)c2ccccc2OC)c1 do in these assays?
Mtb growth: 12.5%

How did O=C(Nc1cccc(-c2cc3ccccc3oc2=O)c1)c1ccc(Br)o1 do in these assays?
Mtb growth: inactive

What do the screens show for `Cc1cc(C(F)(F)F)c2c(N)c(C(=O)Nc3nc4ccc(Br)cc4s3)sc2n1`?
Mtb growth: inactive

Results for CCCNC(=O)c1ccccc1NC(=O)c1ccccc1Cl ?
Mtb growth: 2.8%

How did Fc1ccc(-c2n[nH]c(=S)n2CCc2ccccc2)cc1 do in these assays?
Mtb growth: inactive

How did O=C(Nc1ccc(CN2CCOCC2)cc1)c1ccc2ccccc2c1 do in these assays?
Mtb growth: inactive

Results for COc1ccccc1C(=O)Nc1nnc(SCc2ccccc2C)s1 ?
Mtb growth: inactive

What do the screens show for `COc1ccc2c(c1)C(C(C(=O)O)C(=O)O)c1ccccc1O2` (stereo not given)?
Mtb growth: inactive

Retrieved by compound from above (5):
How did O=C(COc1ccc(Cl)cc1)OCc1ccccc1 do in these assays?
Mtb growth: inactive

How did O=C(Nc1cccc(-c2cc3ccccc3oc2=O)c1)c1ccc(Br)o1 do in these assays?
Mtb growth: inactive

Results for COC(=O)c1ccc(Nc2nnc(-c3ccc(C)c(S(=O)(=O)NCCO)c3)c3ccccc23)cc1 ?
Mtb growth: 1.6%

Results for COc1ccccc1C(=O)Nc1nnc(SCc2ccccc2C)s1 ?
Mtb growth: inactive

How did O=C(Nc1ccc(CN2CCOCC2)cc1)c1ccc2ccccc2c1 do in these assays?
Mtb growth: inactive

Further records follow:
How did Cc1ccccc1NC(=O)CCCC(=O)O do in these assays?
Mtb growth: inactive

Results for CCC(C)NS(=O)(=O)c1ccc(NC(=O)c2ccc3c(c2)OCO3)cc1 (stereo not given) ?
Mtb growth: inactive

How did COc1cccc(C(=O)Nc2sc(C)c(C)c2C(=O)OC(C)C)c1 do in these assays?
Mtb growth: inactive

What do the screens show for `COc1cc(NS(=O)(=O)c2ccc(NC(=S)NC(=O)COc3ccccc3OC)cc2)nc(OC)n1`?
Mtb growth: 4.5%

What do the screens show for `CCOC(=O)c1c(NC(=O)c2cccs2)sc2c1CCCCCC2`?
Mtb growth: 1.1%

Results for CCCCNS(=O)(=O)c1ccc(NC(=O)c2ccc(SC)cc2OC)cc1 ?
Mtb growth: inactive

What do the screens show for `Cc1ccc(SCC(=O)N2c3ccccc3Sc3ccccc32)cc1`?
Mtb growth: 3.6%

How did COc1cccc(NC(=O)c2cccc(NC(=O)C3C4CC5OC(=O)C3C5C4)c2)c1 (stereo not given) do in these assays?
Mtb growth: inactive

Results for Cc1ccc(OCC(=O)NN2C(=O)c3ccccc3C2=O)c(C)c1 ?
Mtb growth: inactive

How did CCCNC(=O)c1ccccc1N(Cc1ccccc1)S(C)(=O)=O do in these assays?
Mtb growth: inactive

What do the screens show for `O=S(=O)(c1ccc(Cl)cc1)N1CCN(Cc2ccccn2)CC1`?
Mtb growth: inactive

What do the screens show for `COc1cccc(C(=O)NC(=S)Nc2ccccc2C(=O)O)c1`?
Mtb growth: inactive

How did CCOc1ccc(Br)cc1C(=O)NCc1ccc(OC(C)C)cc1 do in these assays?
Mtb growth: inactive

How did O=C(O)c1ccccc1NC(=S)NC(=O)c1cccc2c(Br)cccc12 do in these assays?
Mtb growth: 4.1%

Results for CSc1ncc(C(=O)Nc2nccs2)cn1 ?
Mtb growth: inactive

How did CC(=O)Nc1ccc(/C=C(/C#N)c2nc3cc(C)c(C)cc3[nH]2)cc1 do in these assays?
Mtb growth: 9.4%

What do the screens show for `NC(=O)C1CCN(C2CC(=O)N(Cc3ccc(F)cc3)C2=O)CC1` (stereo not given)?
Mtb growth: inactive

Results for O=C(Nc1ccc(C(F)(F)F)cc1)C1CCN(C(=O)c2ccc(-c3ccccc3)cc2)CC1 ?
Mtb growth: inactive

How did CCOC(=O)C1=C(C)NC(=O)NC1/C=C\c1ccccc1 (stereo not given) do in these assays?
Mtb growth: inactive

Results for N#C/C(=C/c1cc(Br)cs1)c1ccc(C(=O)O)cc1 ?
Mtb growth: inactive

What do the screens show for `Cc1cccc(C(=O)Nc2nnc(Cc3ccc(Cl)cc3)s2)c1[N+](=O)[O-]`?
Mtb growth: 2.9%

What do the screens show for `Cc1cc(-c2ccc(NC(=O)C3CC3)c(C)c2)ccc1NC(=O)C1CC1`?
Mtb growth: 0.8%

What do the screens show for `COc1cccc(C(=O)Nc2cccc(C)c2C)c1OC`?
Mtb growth: 0.6%

Results for CCn1c2ccc(Br)cc2c2nc3ccccc3nc21 ?
Mtb growth: 2.5%

Results for CS(=O)(=O)N(CC(=O)Nc1ccccc1Sc1ccccc1)Cc1ccccc1 ?
Mtb growth: 2.5%

What do the screens show for `S=C(c1ccc(-c2ccccc2)cc1)N1CCN(c2cccc(Cl)c2)CC1`?
Mtb growth: inactive

What do the screens show for `COc1ccc(OC)c(S(=O)(=O)N(C)CC(=O)N2CCN(c3ccccc3)CC2)c1`?
Mtb growth: inactive

What do the screens show for `NC1=NC(=Nc2ccc(N3CCOCC3)cc2)c2ccccc21`?
Mtb growth: 1.6%

Results for N/C(=N\S(=O)(=O)c1ccc(Cl)cc1)c1ccccc1 ?
Mtb growth: inactive

How did CCOc1ccc(-c2n[nH]c(C(=O)N/N=C/c3ccccn3)c2C)cc1 do in these assays?
Mtb growth: 4.4%

Results for COc1ccc(OCCOc2ccccc2Cl)c(C=O)c1 ?
Mtb growth: inactive

How did CCOC(=O)CNC(=O)Nc1cccc(Cl)c1C do in these assays?
Mtb growth: 0.3%

What do the screens show for `NC(=O)c1c(NC(=O)C2CCCO2)sc2c1CCc1ccccc1-2` (stereo not given)?
Mtb growth: inactive

Results for O=C(CCN1CCOCC1)Nc1cccc(F)c1 ?
Mtb growth: inactive

What do the screens show for `CCCC1CCc2c(sc(N)c2C(N)=O)C1` (stereo not given)?
Mtb growth: 0.1%
